Screens from PubChem.
BasE inh: BasE siderophore enzyme inhibitors, primary screen, biochemical, Acinetobacter baumannii ATCC 17978, fluorescence polarization; inhibition, % (no concentration beside the values); purified BasE, fluorescence polarization binding displacement; 84,000 compounds, 0.1% hits;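 active = both replicates above 25% with normal brightness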;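 also: 0% = negative plate control signal and 100% = positive plate control signal; stock transfer was 100 nL into about 30 µL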
LANA-nucl inh: inhibitors of KSHV LANA-nucleosome binding, primary screen, biochemical, fluorescence polarization, FITC-LANA1-23, chicken nucleosomes. 51,000 compounds, 0.3% hits. AID 720717, 2013. z-score (test concentration not listed). FITC-LANA1-23 / chicken nucleosome fluorescence polarization; hits give low values;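 active = both repeat wells score below -2 in polarization z-score versus plate sample wells, excluding overly bright wells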;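 also: 100 nL library stock added to about 30 µL; numbers are from one replicate; some results filed as inactive read as strong as hits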
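System – purified chicken nucleosomes with FITC-labelled LANA N-terminal peptide (1-23) · Amount – 240 nM purified chicken nucleosomes (480 nM peptide binding sites), final · Also added – 50 nM FITC-LANA1-23 probe · Medium – TEN-BT buffer, pH 7.5 · Incubation – compound with peptide–nucleosome mix 10–45 min at room temperature · Detection – fluorescence polarization, ex 480 nm, em 535 nm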
* hit, by the source's call; x = no result given; & = joins results of further samples. This is a subset; rates above refer to the full screens.

mol | BasE inh | LANA-nucl inh
Cc1[nH]c2ccc(C(=O)N3CCCC3)cc2c1C | -3.6 | 2.1
N#Cc1c2c(c(NC3CCCC3)n3c1nc1ccccc13)CCC2 | 13 | -0.24
S=c1[nH]nc(CN2CCCCCC2)n1-c1ccccc1 | -0.4 | -0.13
CSc1nc(N)c2c3c(sc2n1)CCC3 | -1.1 | 0.27
O=C(C1Cc2ccccc2CN1S(=O)(=O)c1ccc(F)cc1)N1CCCCC1 (stereo not given) | 4.1 | -0.89
COC(=O)c1cc(S(=O)(=O)N(C)CC2COc3ccccc3O2)cn1C (stereo not given) | 0.3 | 1.2
Cc1oc(-c2ccccc2Cl)nc1CSc1nnc(C)n2c1cc1occc12 | 0.3 | 0.71
Cc1nc2ccc(CN(C)c3ccc(C(=O)N[C@@H](CCC(=O)O)C(=O)O)s3)cc2c(=O)[nH]1 | x | -0.1
C=C(C)CN(CC)C(=O)CSc1ncnc2ccccc12 | 1.2 | x
CC(C)N(Cc1ccccc1)C(=O)N(C)C | 3.8 | 0.053
O=S1(=O)CCN(Cc2ccc(Cl)c(Cl)c2)CC1 | x | -0.21
CC(C)CN(CC(C)C)C(=O)c1cc(-c2ccc(Cl)cc2)n[nH]1 | 2.1 | -0.92
N#Cc1c(C(F)(F)F)cc(-c2cccs2)nc1S/C=C/C(=O)c1ccccc1 | 3.4 | x
O=C(/C=C/c1ccc(C(F)(F)F)cc1)OC1CCCCC1=O (stereo not given) | 0.6 | x
CCCNC(=O)c1ccc(C2SCCCS2)cc1 | 0.9 | x
CC(C)c1ccc(/C=C\C(=O)O)cc1 | x | 0.73
CCCN(CCC)C(=O)Cn1nnc2sc3c(c2c1=O)CCCC3 | -0.8 | -0.0095
C/C(=C\c1ccccc1)C(=O)NC1CCCC1 | -0.8 | 0.38
O=c1c(-c2cccc(C(F)(F)F)c2)[n+]([O-])c2ccccc2n1O | 7.5 | -1.5
CN(CC(=O)Nc1ccc(Cl)c(C(F)(F)F)c1)c1ccc(S(=O)(=O)N2CCCCC2)cn1 | 4.0 | x
Cc1nn2c(=O)cc(CSc3nc4ccc(NC(=O)c5ccco5)cc4s3)nc2s1 | -0.4 | 0.45
CCOC(=O)N1CCC(NC(=O)CCCC(=O)O)CC1 | -0.7 | x
C=CCNC(=S)N(C)C1CCS(=O)(=O)C1 (stereo not given) | -1.6 | -0.084
N#CNC(=NC1CCCCC1)NC1CCCCC1 | -2.2 | x
O=C(/C=C/c1ccco1)NC(=S)Nc1ccc(Cl)cc1 | -6.6 | -0.63
CCOC(=O)CSc1nc(Nc2ccc(OC)cc2)c2cnc(N(CC)CC)nc2n1 | 2.6 | x
CC(C)NC(=O)CN1CCN(Cc2ccc(OC(F)(F)C(F)C(F)(F)F)cc2)CC1 (stereo not given) | -2.0 | x
NC(=O)c1c(N)n(-c2cccc(F)c2)c2nc3ccccc3nc12 | 0.6 | -0.65
O=[n+]1c(CO)c(CO)n([O-])c2ccccc21 | -0.3 | x
CC1CN(C(=O)C2CCCN2S(=O)(=O)c2cccc3nsnc23)CC(C)O1 (stereo not given) | 3.2 | x
O/N=C(/c1ncon1)N1CCN(c2ccccc2)CC1 | 0.7 | 0.19
CCOC(=O)CSc1nnc(Nc2ccccc2OC)s1 | 2.7 | x
CCn1c(O)c(C=NCC2CCCCC2)c(=O)n(CC)c1=S | 3.6 | x
Cc1nc2ccccc2nc1OCc1cc(=O)n2cc(Br)ccc2n1 | 1.6 | x
COc1ccc(OC)c(CN2CCN(C(=O)c3cc(S(=O)(=O)N4CCOCC4)ccc3Cl)CC2)c1 | -0.2 | x
Cc1ccccc1CCN1C(=O)CCC1(C)C(=O)N1CCCC1 (stereo not given) | -1.0 | 0.69
N=c1n(CC(=O)c2ccco2)c2ccccc2n1Cc1ccccc1 | -0.2 | x
COCCN1Cc2cccc(C(=O)NC(C)CCc3ccco3)c2C1=O (stereo not given) | 2.4 | -0.74
CC(C(=O)N1CCc2ccccc21)N1CCc2ccccc2C1 (stereo not given) | 1.1 | x
NC(=O)c1cc[n+](CC2=C(C(=O)O)N3C(=O)[C@@H](NC(=O)[C@@H](c4ccccc4)S(=O)(=O)[O-])[C@H]3SC2)cc1 | 3.5 | -1.1
Cc1cc2cc(CNC(=O)c3cc4ccccc4o3)ccc2n1C | 1.1 | -0.8
Cc1cc(C)n(-c2cc(=O)[nH]c(=O)[nH]2)n1 | 0.4 | 0.91
Cc1ccccc1/C=C/c1c[nH]c2ccccc12 | -1.3 | x
Cc1nn(-c2ccccc2)c(CC(C)(C)C(=O)O)c1C(=O)O | 2.1 | 0.1
O=c1cc(CSc2nc3ncccc3[nH]2)nc2ccccn12 | 5.3 | -0.097
Cc1cc(/C=N/NC=O)c(C)n1-c1ccc(I)cc1 | 1.4 | x
Cc1cc(C)cc(NC(=S)Nc2cc(C)cc(C)c2)c1 | -2.6 | x
Cc1ccc2c(c1)C1c3sc(=O)[nH]c3SCC1(CC(=O)O)C(=O)O2 (stereo not given) | -2.8 | 2.1
CCOC(=O)C1CCN(C(C)C(=O)NC23CC4CC(CC(C4)C2)C3)CC1 (stereo not given) | -0.3 | x
CCC(=O)Nc1cccc(OCc2cc(=O)n3nc(CC)sc3n2)c1 | -1.5 | 0.43

2 of these compounds, reformatted.
Value order – BasE inh | LANA-nucl inh
CSc1nc(N)c2c3c(sc2n1)CCC3
 : -1.1 | 0.27
O=C(C1Cc2ccccc2CN1S(=O)(=O)c1ccc(F)cc1)N1CCCCC1 (stereo not given)
 : 4.1 | -0.89

The list goes on.
mol | BasE inh | LANA-nucl inh
CC(=O)Nc1cccc(C(=O)OCC(=O)N2CCN(c3ccccc3)CC2)c1 | 0.2 | x
Cc1cc(NC(=O)COC(=O)C23CC4CC(CC(C4)C2)C3)no1 | 1.1 | x
N#C/C(C(=O)c1ccccc1)=C1/CCCCCN1 | 0.4 | -0.19
Cc1ccccc1CSCc1nc2ccccc2c(=O)n1CC#N | -2.8 | x
CC1=C(c2nc(-c3ccccc3)no2)C(c2ccsc2)NC(=S)N1 (stereo not given) | 0.6 | 0.46
CC1=NN(c2cccc(Cl)c2)C(=O)C1 | 2.8 | x
Cc1ccc(-c2cc(-c3ccccc3)no2)c(O)c1 | 1.9 | -0.2
Cc1nonc1CSCC(=O)O | 5.5 | -0.51
O=C(O)c1ccccc1NS(=O)(=O)c1cccc(-n2sc3ccccc3c2=O)c1 | 7.2 | x
CCc1ccc(Nc2nc(N)nc(C(F)(F)F)n2)cc1 | -0.5 | -0.29
COC(=S)Nc1cccc(Cl)c1 | 0.0 | 0.61
O=C(Cc1ccccc1)n1nc(-c2ccco2)nc1NCc1ccccc1 | 0.3 | 0.16
OC1(c2ccc(Cl)cc2Cl)CSC(=S)N1Cc1ccco1 (stereo not given) | 0.2 | -1.7
O=c1oc(-c2cccs2)nc2scc(-c3ccccc3)c12 | 1.1 | -0.055
CCOC(=O)C1=C(N)N(c2ccc(OC)cc2)C(=O)C1 | 0.5 | x
O=C(NCc1nc2ccccc2[nH]1)c1c(F)c(F)c(F)c(F)c1F | -0.3 | x
O=Nc1c(O)[nH]c2c(C(F)(F)F)cccc12 | 2.5 | x
Nc1cccc(-c2cc(C(=O)O)c3cc(Br)ccc3n2)c1 | 1.8 | -0.84
CCOc1ccc2nc3c(cc2c1)CN(CCO)C(=Nc1cccc(OC)c1)S3 | -0.5 | 0.24
Cc1c(C)n(CC(O)CNC2CCCCC2)c2ccccc12 (stereo not given) | 0.9 | x
Cn1ncc(C#N)c1/N=C/N(Cc1ccccc1)Cc1ccccc1 | -0.5 | 1.2
Cc1nnc(N2CCCC2)c2c1nnn2Cc1ccccc1Cl | -0.6 | -0.52
CCn1c(SCC(=O)Nc2cccc3nsnc23)nc2ccccc21 | -2.8 | x
N#Cc1cnc(Sc2nnc(-c3ccncc3)o2)nc1N | 3.3 | 0.12
Cc1c(C(=O)O)oc2c1ccc1ccccc12 | 2.5 | x
COc1ccc(CCNC(=O)C2=NNC(=O)CC2)cc1 | 3.5 | x
Cc1ccccc1C(=O)NC(C)c1ccc2c(c1)OCCO2 (stereo not given) | 3.0 | -0.066
Cn1c(=NC(=O)CSCC(=O)Nc2nccs2)sc2ccccc21 | 2.9 | 0.56
Cc1cc(NC(=O)CCC2CCCCC2)no1 | -1.0 | x
CC(OC(=O)c1ccc(S(=O)(=O)N2CCCC2)cc1)C(=O)NC1CC1 (stereo not given) | -0.2 | x

Entries of single compounds, looked up by structure. Values in the order: BasE inh | LANA-nucl inh
Record of `COc1ccc(CCNC(=O)C2=NNC(=O)CC2)cc1` → 3.5 | x
Record of `Cc1nnc(N2CCCC2)c2c1nnn2Cc1ccccc1Cl` → -0.6 | -0.52

The list continues:
mol | BasE inh | LANA-nucl inh
Cc1ncc([N+](=O)[O-])n1CC(C)O (stereo not given) | -0.2 | 0.039&0.086&0.43
COc1ccc(N2CCN(Cc3cc(=O)c(OCc4ccccc4)co3)CC2)cc1 | 1.3 | 0.83
O=C(Cn1c(=O)oc2ccccc21)N1CCN(S(=O)(=O)/C=C/c2ccccc2)CC1 | 1.9 | x
CC1CCc2ccccc2N1C(=N)N(C)C (stereo not given) | 1.5 | x
CC(C)NC(=O)CN1C(=O)C(C)(C)Oc2ccc(C(=O)NC(C)C)cc21 | -2.2 | 0.49
CCn1c(=NC(=O)c2cccc(OC)c2)sc2cccc(OC)c21 | 0.2 | -1.3
CC(C)CC(=O)Nc1ccncc1 | 2.2 | 0.19
Cc1occc1C(=O)N1CCCCCC1 | -2.3 | 0.67
CC(C)[C@H](NC(=O)c1cccc(S(=O)(=O)N2CCOCC2)c1)C(=O)O | 1.2 | x
CCC(C)(C)Nc1ncccc1C(=O)O | -1.2 | 1.7
Clc1cccc(Cl)c1CSc1nnc(N2CCOCC2)n1-c1ccccc1 | -3.2 | x
Cc1ccccc1N(CC(=O)Nc1sccc1C#N)S(C)(=O)=O | -34 | x
O=C(OC(c1ccc2c(c1)OCO2)c1nccc2ccccc12)c1ccco1 (stereo not given) | -1.1 | x
CN(C)CCCN1c2ccccc2CCc2ccccc21 | -1.2&-0.1 | 0.51&0.25&-0.89&-0.033
N#CC(/C(=N/S(=O)(=O)c1cccs1)c1ccccc1)c1nnc(N2CCOCC2)n1-c1ccccc1 (stereo not given) | 2.2 | x
Cc1cc(C)nc(SCC(=O)OCC(=O)N2CCN(c3ccccc3)CC2)n1 | 0.3 | x
CC(C)C(NC(=O)c1c(F)cccc1F)C(=O)N1CCN(S(=O)(=O)c2ccc(F)cc2)CC1 (stereo not given) | 0.1 | x
O=C(Cc1noc2ccccc12)NCc1cccc(Cl)c1 | x | -0.79
Cc1nsc(N)c1C(=O)OCc1ccc(C#N)cc1 | 0.1 | x
CCCC(C)C1C(C#N)=C(N)Oc2cc(N)ccc21 (stereo not given) | -3.3 | x
CC(C)c1nn2cc(-c3ccc(Br)cc3)nc2s1 | 0.3 | -0.29
O=C(CSc1nc2sccc2c(=O)n1-c1ccccc1)N1CCCC1 | -2.7 | x
CSc1ccc(/C=C2/SC(=O)N(CNc3ccccc3)C2=O)cc1 | 3.0 | x
COC(=O)C(OC)c1cc(C(C)(C)C)c(O)c(C(C)(C)C)c1 (stereo not given) | x | -0.25
CCOC(=O)c1ncoc1-c1ccc(Cl)cc1Cl | 0.0 | x
CC(=O)SC1CC(=O)N(c2ccc(C(C)(C)C)cc2)C1=O (stereo not given) | 1.3 | x
O=C(NC1CC1)c1ccc2c(c1)N(Cc1ccccc1)C(=O)CS2=O (stereo not given) | -0.4 | 0.075
Cc1nc2c(-c3ccccc3)c(C)nn2c(C)c1CC(=O)NC(C)CCc1ccco1 (stereo not given) | -0.8 | 0.39
O=C(CC1CCCCC1)N1CCOCC1 | 0.7 | 0.38
Cc1ccn2c(CO)c(-c3ccccc3)nc2c1 | x | 0.083
Nc1cc(-c2ccc(I)cc2)[nH]n1 | 0.6 | 0.076
Cc1cccc2cc(CN(C(=O)C3CC3)C3CCCC3)c3nnnn3c12 | 2.2 | -0.16
O=C1CCC(C(=O)O)NC(=O)N1 (stereo not given) | -7.5 | -0.56
Cc1cc(C)nc(SCC(N)=O)n1 | 1.3 | -0.12
O=C(c1cnn(S(=O)(=O)c2ccccc2)c1)c1cc(Cl)ccc1O | -0.8 | x
CCc1nn(CC(=O)NCCN2CCN(c3cccc(C)c3C)CC2)c(=O)c2cc3sccc3n12 | 0.6 | -1.4
CC(NC(=O)C1COc2ccccc2O1)c1ccccc1F (stereo not given) | 1.5 | x
COC(=O)CCc1c(C)c(C(=O)c2ccco2)c2ccccn12 | 3.3 | x

Sorted by molecular weight (rising): 3 of the compounds above
mol | BasE inh | LANA-nucl inh
COC(=S)Nc1cccc(Cl)c1 | 0.0 | 0.61
Cc1c(C)n(CC(O)CNC2CCCCC2)c2ccccc12 (stereo not given) | 0.9 | x
O=C(Cc1ccccc1)n1nc(-c2ccco2)nc1NCc1ccccc1 | 0.3 | 0.16
